Screening data: PubChem, National Center for Advancing Translational Sciences (NCATS)
Lassa entry – qHTS for Inhibitors of binding or entry into cells for Lassa Virus. Lassa virus pseudotyped entry inhibition, cell-based qHTS; control for the full effect not named in the record; many of its hits are not listed in these tables. Potency, µM (titrated, usually from 49.2 µM), inactives show top-dose activity change, negative = inhibition, most hits filed as inhibitors. hit rate 4.1% among 18,000. AID 720533, 2013; active = well fitted inhibition curve with a large enough effect; inconclusive = small, poorly fitted or top-dose-only effect; inactive = no such curve, though single readings can be large or run the other way; tested in HEK293 cells; also: luciferase read-out
Marburg entry – qHTS for Inhibitors of binding or entry into cells for Marburg Virus | Marburg virus pseudotype entry/binding inhibition, cell-based; control for the full effect not named in the record; many of its hits are not listed in these tables | Potency, µM (top dose mostly 49.2 µM), without a hit: at the top dose activity change, negative = inhibition, most hits filed as inhibitors | hit rate 6.5% among 18,000; active means well fitted inhibition curve with a large enough effect; inconclusive means small, poorly fitted or top-dose-only effect; inactive means no such curve, though single readings can be large or run the other way; tested in HEK293 cells; also: luciferase read-out
* marks the source's active call; other numbers are inactive results; ? = inconclusive; · = not tested or not shown; & = joins results of further samples; [ ] = remark or other dose. % is scaled to controls: 0 for no effect and ±100 for the full control effect; potency is read from the fitted curve at half-maximal effect. Not all compounds are listed; count on the stated rates, not on these rows.

SMILES	Lassa entry	Marburg entry
CC(C)C1C(=O)N(Cc2cn(Cc3ccco3)nn2)CCS(=O)(=O)N1Cc1ccc(-c2ccc(F)cc2)cc1 (stereo unspecified)	?	?
C[C@H]1[C@H](c2ccccc2)Oc2ccc(Cl)cc2S(=O)(=O)N1C[C@@H]1CCCN1C(=O)OC(C)(C)C	?	?
C[C@H]1[C@@H](O)[C@@H](C)/C=C\C=CCC\C=C/C=C\C=C/C=C[C@@H](O[C@H]2O[C@@H](C)[C@@H](O)[C@@H](N)[C@@H]2O)C[C@@H]2O[C@@](O)(C[C@@H](O)[C@H]2C(=O)O)C[C@@H](O)[C@@H](O)CC[C@@H](O)C[C@@H](O)C[C@@H](O)CC(=O)O[C@H]1C	7%[17.8 µM]	-3%[17.8 µM]
COc1ccc2cc(CNCc3ccccc3Cl)c(N3CCCC(CO)C3)nc2c1 (stereo unspecified)	-2%	27%
CC[C@H](C)[C@@H](NC(=O)O[C@@H]1C(=O)c2cc(Br)ccc2O[C@H]1c1cccc(OC)c1)C(=O)OC	-4%	-11%
COc1ccc(OC)c(-c2cc(Cl)c3c(c2)CC(CNC(=O)C(C)N2CCOCC2)O3)c1 (stereo unspecified)	-25%	-26%
O=C1CCN(S(=O)(=O)c2ccccc2)CCN1CCOCc1ccc(F)cc1	-4%	11%
COc1cccc([C@@H]2Oc3ccc(Br)cc3C[C@H]2O)c1	6%	-24%
OC(CN1CCCCC1)c1cc(-c2ccccc2)on1 (stereo unspecified)	-15%	-8%
CN(Cc1cnc2ccccn12)C1CCN(c2cccc(NC(=O)c3cccnc3)c2)CC1	-7%	-14%
Cc1cccc(Nc2ncc(-c3ccccc3)o2)c1	·	-19%
C[C@@](N)(C(=O)O)[C@@H]1C[C@@H]1C(=O)O	0%	2%
COc1cccc(-n2ncc3c(NN=Cc4cccc(F)c4)ncnc32)c1	·	-11%
CCNC(C)Cc1cccc(C(F)(F)F)c1 (stereo unspecified)	2%	11%
S=C(S)OC1CC2CC1C1CCCC21 (stereo unspecified)	1%	0%
N[C@H](Cc1ccccc1)C(=O)O	3%	17%
O=c1cc(-c2ccc(F)cc2F)[nH]c2ccc(F)cc12	6%	21%
Cc1nc(CC(=O)NCC2Cc3cc(F)cc(-c4ccc(F)c(C)c4)c3O2)cs1 (stereo unspecified)	-30%	?
CCCCCCCC(=O)OCC(O)CO (stereo unspecified)	0%&6%	13%&12%
CC(=O)OCC(=O)[C@@]1(O)CCC2C3CC(C)C4=CC(=O)C=CC4(C)C3C(O)CC21C (stereo partly specified)	3%	-19%
COc1cc(C(CC2=CCCCC2)NC(=O)C(F)(F)F)cc(OC)c1OC (stereo unspecified)	-21%[8.59 µM]	1%[8.59 µM]
CC(=O)OC(C)(C)C1Cc2cc3ccc(=O)oc3cc2O1 (stereo unspecified)	40%[activator]	31%[activator]
C=CCC1(O)C=CCC2C3C4C(OC(C)(C)C)C2C1C34 (stereo unspecified)	6%[8.59 µM]	4%[8.59 µM]
CC1CCC(NC(=O)N(CCCl)N=O)CC1 (stereo unspecified)	19%	25%
NS(=O)(=O)c1cccc2c1c([N+](=O)[O-])cc1nc(O)c(O)nc12	0%	11%

(list continues)
SMILES	Lassa entry	Marburg entry
COC(=O)CC=C[C@@H](C)[C@@H](COc1ccccc1Br)OC	-17%[8.59 µM]	12%[8.59 µM]
CN(CCc1ccc(Cl)c(Cl)c1)C[C@@H](O)COc1ccc(NS(C)(=O)=O)cc1	-21%	14µM*
CCOC(=O)CN[C@@H](C(=O)N1CC[C@H]1C(=O)NCc1ccc(/C(N)=N/O)cc1)C1CCCCC1	-8%	-10%
O=C1OCCN1C(=O)[C@H]1[C@H](c2ccc([N+](=O)[O-])cc2)C(c2cccc(Cl)c2)=NN1c1ccc(Br)cc1	?	?
CCCCC/C=C\C/C=C\C/C=C\CCCCCCC(N)=O	5%	-17%
CC(=O)Nc1ccc(OCc2cn(CC(=O)c3ccc(O)cc3)nn2)cc1	-22%	14%
COc1ccc2c(c1OC)C(Cc1ccccc1)N1CCc3cc4c(cc3C1C2)OCO4 (stereo unspecified)	?	-7%
COc1ccc(C(=O)OC2CC3CC[C@H](C2)N3C(C)=O)cc1OC (stereo partly specified)	-1%	1%
O=C(O)CCCC[C@@H]1SC[C@@H]2NC(=O)N[C@@H]21	14%	-7%
CC[C@H](C)[C@H](NC(=O)[C@H](C)NC(=O)[C@H](CC(=O)O)NC(=O)[C@H](CO)NC(=O)[C@@H](N)Cc1cnc[nH]1)C(=O)N[C@@H](Cc1ccccc1)C(=O)N[C@H](C(=O)N[C@@H](CCC(N)=O)C(=O)N[C@@H](CCC(N)=O)C(=O)N[C@@H](Cc1ccc(O)cc1)C(=O)N[C@@H](CO)C(=O)N[C@@H](CCCCN)C(=O)N[C@@H](CC(C)C)C(=O)N[C@@H](CC(C)C)C(=O)N[C@@H](C)C(=O)N[C@@H](CCCCN)C(=O)N[C@@H](CC(C)C)C(=O)N[C@@H](C)C(=O)N[C@@H](CC(C)C)C(=O)N[C@@H](CCC(N)=O)C(=O)N[C@@H](CCCCN)C(=O)N[C@@H](Cc1ccc(O)cc1)C(=O)N[C@@H](CC(C)C)C(=O)N[C@@H](C)C(=O)N[C@@H](CO)C(=O)N[C@H](C(=O)N[C@@H](CC(C)C)C(=O)NCC(=O)N[C@@H](CO)C(=O)N[C@@H](CCCNC(=N)N)C(=O)N[C@H](C(=O)N[C@@H](CO)C(=O)N1CCC[C@H]1C(=O)N1CCC[C@H]1C(=O)N1CCC[C@H]1C(N)=O)[C@@H](C)O)[C@@H](C)CC)[C@@H](C)O	-8%	11%
Cc1cc(CNC(=O)c2cnn(-c3ncc4c(n3)-c3ccccc3CCC4)c2C2CC2)on1	38%[activator]	27%
Cn1c(-c2ccncc2)nc2cc(C(=O)N[C@H]3CCCCNC3=O)cc(NC(=O)C3CCC3)c21	-13%	-5%
Cc1c(O)c(O)cc2c1CC=C1[C@]3(C)CC[C@]4(C)CC[C@@](C)(C(=O)O)CC4[C@]3(C)CC[C@]12C (stereo partly specified)	?	?
C[N+](C)(C)CC[N+]1(C)Cc2c(Cl)c(Cl)c(Cl)c(Cl)c2C1	-5%&0%	1%&5%
CCCCCCCCCCCC(=O)OCC(O)CO (stereo unspecified)	-11%	5%
CCCCCCCCNS(=O)(=O)CCNCc1ccccc1	32%	21%
COC(=O)C1(C(=O)OC)C/C=C\C/C=C\c2ccccc2C1C[N+](=O)[O-] (stereo unspecified)	-2%	-14%
CCCCCCCC[C@@H](O)/C=C/C=C/C=C\[C@@H](O)CCCC(=O)O	-10%	0%
O=C1OCCN1C(=O)[C@H]1[C@H](c2ccc([N+](=O)[O-])cc2)C(c2ccccc2)=NN1c1ccccc1	-23%	-23%
O=C1c2cccc3c2[C@H](CCC3)CN1[C@@H]1CN2CCC1CC2	?	?
Cc1cc(C(=O)Nc2cccc(-c3nc(CNC(=O)c4cc5ccccc5[nH]4)c(C)o3)c2)c(C)o1	-18%	8%
Cc1cc2nc3c(=O)[nH]c(=O)nc-3n(C[C@H](O)[C@H](O)[C@H](O)COP(=O)(O)OP(=O)(O)OC[C@H]3O[C@@H](n4cnc5c(N)ncnc54)[C@H](O)[C@@H]3O)c2cc1C	-4%	20%
C=CC(C1=CC(=O)C(OC)=CC1=O)c1ccc(O)cc1 (stereo unspecified)	-10%	31%[activator]
Cc1occc1C(=O)NCCN1Cc2ccccc2OC(c2ccccc2F)C1 (stereo unspecified)	-9%	?
O=S1(=O)c2cccc3cccc(c23)N1CCCN1CCN(c2ccc(F)cc2)CC1	-7%	-8%

The results go on:
SMILES	Lassa entry	Marburg entry
c1ccc(CCCCN2CCC(c3ccccc3)CC2)cc1	?	14µM*
C[C@H]1COC2=C1C(=O)C(=O)c1c2ccc2c1CCCC2(C)C	-11%	-6%
C[C@@H]1CC[C@H]2C(=O)N(Cc3ccc(Cl)cc3)C[C@@H](O)CN2[C@H]1c1cccc(Br)c1	-9%[8.59 µM]	43%[activator][8.59 µM]
CCOC(=O)N/N=C/c1ccccc1-c1cc(OC)ccc1OC	2%	23%
CCC[C@@H]1CC2=CC(=O)CC[C@]2(C)[C@H]2CC[C@@]3(C)[C@@H](CC[C@@]34CCC(=O)O4)[C@H]12	-22%	?
N[C@@H](CCCP(=O)(O)O)C(=O)O	5%	-8%
Cc1ccc([C@H]2C[C@@H](n3cc(C4CC4)nn3)[C@H](O)CN2Cc2cccs2)cc1	·	?
COC(=O)C1=C(C(=O)OC)[C@@H]2N(C)c3ccccc3[C@@]23C[C@@H](C(=O)OC)N(C(=O)NC2CCCC2)C3=N1	14%[8.59 µM]	?
CC1(CN2CCC(n3c(=O)[nH]c4ccccc43)CC2)OCc2ccccc2-n2cccc21 (stereo unspecified)	?	?
Cc1ccc(CN2CC(N3CC=CC3)CS2(=O)=O)cc1 (stereo unspecified)	·	25%
Cc1noc(C)c1CCC(=O)N1CCOc2ccc(CN3CCN(c4ccccn4)CC3)cc2C1	-19%	-13%
O=C(O)Cc1cc2ccccc2nc1C(=O)O	9%	7%
CC1=C[C@@H](COCc2ccccc2)O[C@@]2(C1)C(=O)N(Cc1ccccc1C(F)(F)F)c1ccccc12	11%[8.59 µM]	5%[8.59 µM]
COC(=O)[C@H](C(C)C)N(Cc1cc(OC)cc(OC)c1)S(=O)(=O)CCl	·	-23%
CC(NC(=O)C1CCOCC1)c1nnc2n1CCN(Cc1cc3c(cc1Cl)OCO3)CC2 (stereo unspecified)	3%	-16%
c1ncc(-c2ccc3c(c2)OCO3)c(NCCc2cnc[nH]2)n1	1%	-5%
CC1=C(C(=O)OC(C)C)C(c2cccc([N+](=O)[O-])c2)C(C(=O)OC2CN(C(c3ccccc3)c3ccccc3)C2)=C(N)N1 (stereo unspecified)	-20%	-24%
COc1ccc([C@H]2C[C@H](n3cc(-c4ccc(F)cc4)nn3)[C@@H](O)CN2CC2CCCCC2)cc1	?	?
CCC1CN(CCC(=O)NC2CCOC(C)(C)C2)Cc2cc(OC)ccc2O1 (stereo unspecified)	-12%	-25%
COc1ccccc1-c1ccnc(-n2ncc(C(=O)NCc3cccnc3)c2C)n1	3%	-5%
Cc1cc2c(cc1S(N)(=O)=O)S(=O)(=O)CCC2	0%[17.8 µM]	15%[17.8 µM]
Cc1c(-c2ccc(Cl)cc2)noc1C1CCN(CCc2ccccc2)CC1	0%&-11%	?
Cc1cc2c(nc1C)CCCCN2C[C@H](C)ON=C[C@@H](C)[C@H](OCc1ccccc1)C(C)C	-19%[8.59 µM]	?
O=c1cc(-c2cccc(F)c2)[nH]c2cc(F)ccc12	-8%	?
O=c1ccc2ccc(O)cc2o1	-3%	14%

An excerpt of these results, with values under each structure:
Each structure is followed by: Lassa entry, Marburg entry
> O=C(O)Cc1cc2ccccc2nc1C(=O)O
→ 9%, 7%
> CC1=C[C@@H](COCc2ccccc2)O[C@@]2(C1)C(=O)N(Cc1ccccc1C(F)(F)F)c1ccccc12
→ 11%[8.59 µM], 5%[8.59 µM]
> COC(=O)[C@H](C(C)C)N(Cc1cc(OC)cc(OC)c1)S(=O)(=O)CCl
→ ·, -23%
> CC(NC(=O)C1CCOCC1)c1nnc2n1CCN(Cc1cc3c(cc1Cl)OCO3)CC2 (stereo unspecified)
→ 3%, -16%
> c1ncc(-c2ccc3c(c2)OCO3)c(NCCc2cnc[nH]2)n1
→ 1%, -5%
> CC1=C(C(=O)OC(C)C)C(c2cccc([N+](=O)[O-])c2)C(C(=O)OC2CN(C(c3ccccc3)c3ccccc3)C2)=C(N)N1 (stereo unspecified)
→ -20%, -24%
> COc1ccc([C@H]2C[C@H](n3cc(-c4ccc(F)cc4)nn3)[C@@H](O)CN2CC2CCCCC2)cc1
→ ?, ?
> CCC1CN(CCC(=O)NC2CCOC(C)(C)C2)Cc2cc(OC)ccc2O1 (stereo unspecified)
→ -12%, -25%
> COc1ccccc1-c1ccnc(-n2ncc(C(=O)NCc3cccnc3)c2C)n1
→ 3%, -5%
> Cc1cc2c(cc1S(N)(=O)=O)S(=O)(=O)CCC2
→ 0%[17.8 µM], 15%[17.8 µM]
> Cc1c(-c2ccc(Cl)cc2)noc1C1CCN(CCc2ccccc2)CC1
→ 0%&-11%, ?
> Cc1cc2c(nc1C)CCCCN2C[C@H](C)ON=C[C@@H](C)[C@H](OCc1ccccc1)C(C)C
→ -19%[8.59 µM], ?

(list continues)
SMILES	Lassa entry	Marburg entry
CN(C)c1ncnc2ccc(-c3ccccc3C#N)cc12	-2%	13%
CCc1cc(C(N)=S)ccn1	2%	11%
COc1ccc2c(c1)O[C@H](c1ccc3c(c1)OCO3)[C@@H](OC(=O)NCCc1ccc(OC)c(OC)c1)C2=O	0%	22%
COc1ccc(COCCN2CCN(S(=O)(=O)c3ccc(C)cc3)CCC2=O)cc1	-24%&1%	42%&7%[activator]
Nc1nc(-c2ccc(F)cc2)c(-c2ccc3ncccc3n2)s1	-33%	?
COC(=O)c1c(OC)cc2c(c1C)Oc1c(Cl)c(O)c(Cl)c(C)c1C(=O)O2	-2%	9%
CC/C=C\C[C@H]1C(=O)CC[C@@H]1CC(=O)O	-4%	7%
O=C(NCC1CCC2(CCN(Cc3ccc4ncccc4c3)CC2)O1)C1CCCO1 (stereo unspecified)	-3%	-16%
O=S1(=O)c2ccccc2OC(COCc2ccccc2)CN1C1CC1 (stereo unspecified)	·	-15%
Clc1cncc(N2CCNCC2)n1	-2%&5%	-17%&6%
CO[C@H]1[C@@H](O)[C@H](N)[C@@H](O[C@H]2O[C@H]([C@H](C)N)CC[C@H]2N)[C@H](O)[C@@H]1N(C)C(=O)CN	-19%	9%
COc1ccc2c(c1)O[C@H](c1ccc3c(c1)OCO3)[C@@H](OC(=O)NC1CCCC1)C2=O	-10%	14%
